KCNQ2 inh: KCNQ2 channel blockers in CHO-K1 cells – cell-based, FluxOR thallium flux, B-score, primary screen (AID 2156); O88943; 20 min; hits give low values; only compounds with negative scores are shown here; some inactives read as strong as hits; B-score at 10 µM; hit rate 1.1% among 310,000;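 active means fluorescence ratio B-score at most minus 3 library SDs, with starting brightness B-score within 2 library SDs, cut at about -5.5 in these data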
Target sequence (O88943 whole entry, looked up): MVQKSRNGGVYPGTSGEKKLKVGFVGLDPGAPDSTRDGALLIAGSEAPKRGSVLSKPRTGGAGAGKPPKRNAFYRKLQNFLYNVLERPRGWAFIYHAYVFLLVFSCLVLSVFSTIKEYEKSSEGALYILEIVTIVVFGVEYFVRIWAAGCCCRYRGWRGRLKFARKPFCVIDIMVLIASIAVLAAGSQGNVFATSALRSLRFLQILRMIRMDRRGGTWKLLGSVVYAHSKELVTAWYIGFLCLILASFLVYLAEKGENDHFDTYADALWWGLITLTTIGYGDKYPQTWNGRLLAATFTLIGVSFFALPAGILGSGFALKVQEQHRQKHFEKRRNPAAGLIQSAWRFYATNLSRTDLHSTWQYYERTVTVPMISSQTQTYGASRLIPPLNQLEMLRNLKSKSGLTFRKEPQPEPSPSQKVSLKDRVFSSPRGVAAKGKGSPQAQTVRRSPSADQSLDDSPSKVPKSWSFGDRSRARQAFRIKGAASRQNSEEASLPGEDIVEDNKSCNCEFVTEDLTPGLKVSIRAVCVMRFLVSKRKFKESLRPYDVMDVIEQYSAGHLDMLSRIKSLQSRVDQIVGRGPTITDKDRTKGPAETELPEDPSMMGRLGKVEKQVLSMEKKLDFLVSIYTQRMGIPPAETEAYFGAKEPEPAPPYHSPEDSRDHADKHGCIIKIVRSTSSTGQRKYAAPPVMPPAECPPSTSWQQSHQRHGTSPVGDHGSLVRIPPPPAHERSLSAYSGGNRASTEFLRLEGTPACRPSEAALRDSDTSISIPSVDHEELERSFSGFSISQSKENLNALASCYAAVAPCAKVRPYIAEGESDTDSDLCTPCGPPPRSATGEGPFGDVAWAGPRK
KCNQ2 inh baseline: second read-out of KCNQ2 inh, no call of its own (marks repeat the call); B-score; measured here: initial fluorescence intensity artifact check;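 brightness before thallium and not channel activity; 0 = typical well and far values either way flag optical interference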
An asterisk follows results filed as active; i = inactive. A portion of the library. The share of hits here may be higher or lower than overall.

SMILES | KCNQ2 inh | KCNQ2 inh baseline
Oc1ccc(Nc2nc(-c3ccccc3)nc3ccccc23)cc1 | i | -0.11
Cc1cccc(/C=C2/Sc3ccc(C(=O)NCCCN4CCOCC4)cc3NC2=O)c1 | i | -0.59
Cc1ccccc1-c1noc(-c2ccccc2C(=O)NCC2CCCO2)n1 (stereo not drawn) | i | 2
Cc1cc(OCc2cc(C(=O)N(C)Cc3nonc3C)no2)cc(C)c1Cl | i | -0.72
CC(NC(=O)c1ccccc1)C(=O)N/N=C/c1ccccc1 (stereo not drawn) | i | 2.3
COc1ccc(NC(=O)CCNS(=O)(=O)c2cccc3nsnc23)cc1OC | i | 0.03
C/C(=N\NC(=S)NCCc1ccccc1)c1ccc(Cl)cc1 | i | 0.03
Cc1noc(C)c1C(=O)N(CC(=O)NC1CCCC1)Cc1ccccc1F | i | 1
O=C(Nc1cccc(S(=O)(=O)N2CCCCC2)c1)c1ccccc1NS(=O)(=O)c1ccc(F)cc1 | i | 0.83
CC(=O)C(C)Oc1cc(C)cc2oc(=O)c(C)c(C)c12 (stereo not drawn) | i | 0.09
Cc1cc(C)nc(NC(=O)/C=C/c2ccc(Cl)cc2Cl)c1 | i | 0.55
Cc1ccc(NC(=O)CS(=O)CC(=O)N(c2ccccc2F)C(C)C(=O)NC2CCCC2)cc1 (stereo not drawn) | i | -0.86
COc1ccc([C@H]2/C=C\CN(Cc3ccc(N(C)C)cc3)[C@@H](C)C(=O)N2Cc2ccc(F)cc2)cc1 | i | -1.2
COc1cccc(CN2CC(C(=O)N(C)CCCC3CCCC3)CCC2=O)c1 (stereo not drawn) | i | -0.04
Cc1cc(C)cc(OC(C)c2ccnc3nc(/N=C/N(C)C)nn23)c1 (stereo not drawn) | i | -1.2
O=C(C1CCCN1S(=O)(=O)c1cccc2nsnc12)N1CCCCC1 (stereo not drawn) | i | 2.1
O=C1CN(C(=S)Nc2ccccc2Cl)CCN1 | i | 1.2
CC1CCN(C(=O)C2CCCN(S(=O)(=O)c3cccc4nsnc34)C2)CC1 (stereo not drawn) | i | 0.04
COc1cc2c(C(=O)O)c(C)n(-c3ccccc3)c2c2ccccc12 | i | 1.2
Cc1ccc(-n2nc3c(=O)n(CCCC(=O)NCc4ccccc4C)nc(C)c3c2C)cc1 | i | -0.08
CN1/C(=C\C(=O)CSc2nncn2C)C(C)(C)c2ccccc21 | i | -2.1
CCCCOc1ccc(/C=C2/Sc3ccccc3C2=O)cc1 | i | 0.86
CCOC(=O)C1(CCOc2ccccc2)CCN(Cc2ccc(OC)c(COC)c2)CC1 | i | 0.73
COc1ccccc1NC(=O)c1cc(C(=O)Nc2ccccc2OC)cc([N+](=O)[O-])c1 | i | 0.23
C=CCc1ccccc1OCC(O)CNC(C)C (stereo not drawn) | i | -1.5
CCC(c1nnnn1Cc1ccco1)N(CCc1ccccc1)Cc1cc2cc(C)ccc2[nH]c1=O (stereo not drawn) | i | 1.3
O=C(/C=C/C=C/c1ccccc1)CC1(O)C(=O)N(CCc2ccccc2)c2ccccc21 (stereo not drawn) | i | 1.1
Cc1nn(C)cc1CN(C)C(=O)c1cc(-c2ccccc2)nc2ccc(Br)cc12 | i | 0.06
O=[N+]([O-])c1ccccc1CN1CCN(Cc2c[nH]c3ccccc23)CC1 | i | -0.06
Cc1ccc(-n2nc3c(=O)n(CC(=O)NCc4ccccc4Cl)nc(C)c3c2C)cc1 | i | -0.1
COc1ccc(C(=O)Nc2nc(C)cc(C)n2)cc1 | i | 0.56
CC1=NN(c2ccc(Cl)cc2)C(=O)/C1=C\c1cccn1-c1ccc(S(N)(=O)=O)cc1 | i | 0.9
CCOC(=O)N1CCN(C(=O)C2CCC(=O)N(CCCc3ccccc3)C2)CC1 (stereo not drawn) | i | -0.63
COC(=O)c1ccccc1-c1ccc(/C=C2\C(=O)N(c3ccccc3)N=C2c2ccccc2)o1 | i | -1.7
Cc1ccc(-c2n[nH]c(=O)c3ccccc23)cc1S(=O)(=O)NCC1CCCO1 (stereo not drawn) | i | 0.48
OC1(C2(O)CC(c3ccccc3)ON2)CCCCC1 (stereo not drawn) | i | 1.3
CCC(SC1=N/C(=C/c2ccccc2)C(=O)N1c1ccccc1)C(=O)Nc1cc(C)on1 (stereo not drawn) | i | -0.48
CCn1c(SCC(=O)N(C)C)nc2cc(S(=O)(=O)N3CCOCC3)ccc21 | i | 0.11
O=C(c1noc2c1CCCC2)N1CCOCC1 | i | 0.64
Cc1ccc2c(c1)C(c1ccccc1)N(C(=O)c1ccc3c(c1)OCO3)CC(=O)N2 (stereo not drawn) | i | -0.31
CCOCCCNC(=O)C(c1ccccc1)N(Cc1cccs1)C(=O)CNC(C)=O (stereo not drawn) | i | -0.11
O=C(CN1CCCCCC1)Nc1ccccc1Oc1ccccc1 | i | 3.3
Cc1nn2c(N)csc2nc1=O | i | 0.7
OC(CN1CCCCC1)Cn1c2ccc(Cl)cc2c2cc(Cl)ccc21 (stereo not drawn) | i | 0.22
CC(=O)Nc1cccc(NC(=O)COC(=O)CO/N=C(\C)c2ccc3c(c2)OCO3)c1 | i | 1.2
Cc1ccc(C)n1-n1cnc2sc3c(c2c1=O)CCC3 | i | 0.67
Cc1c(C(=O)N2CCN(CCc3ccccc3)CC2)oc2ccccc12 | i | -0.23
COc1ccc(N(CC(=O)Nc2ccc(C(N)=O)cc2)S(=O)(=O)c2ccc(C)c([N+](=O)[O-])c2)cc1 | i | -3.1

As a short view, some entries already given:
SMILES | KCNQ2 inh | KCNQ2 inh baseline
CC(=O)Nc1cccc(NC(=O)COC(=O)CO/N=C(\C)c2ccc3c(c2)OCO3)c1 | i | 1.2
Cc1ccc(C)n1-n1cnc2sc3c(c2c1=O)CCC3 | i | 0.67
Cc1c(C(=O)N2CCN(CCc3ccccc3)CC2)oc2ccccc12 | i | -0.23
COc1ccc(N(CC(=O)Nc2ccc(C(N)=O)cc2)S(=O)(=O)c2ccc(C)c([N+](=O)[O-])c2)cc1 | i | -3.1

(listing goes on)
SMILES | KCNQ2 inh | KCNQ2 inh baseline
COc1ccc(NC(C)=O)cc1NC(C)c1nc2sc(C)c(C)c2c(=O)[nH]1 (stereo not drawn) | i | -2.6
CCOc1ccc(N(CC(=O)N/N=C/c2ccc(OC(C)C)cc2)S(C)(=O)=O)cc1 | i | 0.24
CCOC(=O)Nc1c(C(=O)OC)[nH]c2cccc(OC)c12 | i | 0.38
CCc1c(C)nc(N2CCN(c3ccc(F)cc3)CC2)[nH]c1=O | i | -3.9
O=C(COC(=O)/C=C/c1ccc(C(F)(F)F)cc1)NCc1ccco1 | i | 0.6
COc1cc2c(cc1NC(=O)CN(C)Cc1ccc(OC)c(OC)c1)oc1ccccc12 | i | 2.6
CCOC(=O)C[n+]1ccc2c([nH]c3ccccc32)c1C | i | 0.04
Cc1ccccc1NC(=O)c1ccc2c(c1)OCCO2 | i | -0.87
CC(C)(C)c1nnc(N/N=C/c2ccc(Br)cc2)n(N)c1=O | i | -0.1
O=C(CC1C(=O)NCCN1Cc1ccc(-c2ccccc2)cc1)NCc1ccccc1 (stereo not drawn) | i | 0.12
COc1cc(CN2CCNC(=O)C2CC(=O)NCc2csc(C(C)C)n2)cc(OC)c1 (stereo not drawn) | i | -0.18
CN(C)C(=O)c1cc(C(=O)c2ccccc2Cl)c[nH]1 | i | 0.5

Entries shown so far with an aryl methoxy group (twelve):
SMILES | KCNQ2 inh | KCNQ2 inh baseline
COc1ccc(NC(=O)CCNS(=O)(=O)c2cccc3nsnc23)cc1OC | i | 0.03
COc1ccc([C@H]2/C=C\CN(Cc3ccc(N(C)C)cc3)[C@@H](C)C(=O)N2Cc2ccc(F)cc2)cc1 | i | -1.2
COc1cccc(CN2CC(C(=O)N(C)CCCC3CCCC3)CCC2=O)c1 (stereo not drawn) | i | -0.04
COc1cc2c(C(=O)O)c(C)n(-c3ccccc3)c2c2ccccc12 | i | 1.2
CCOC(=O)C1(CCOc2ccccc2)CCN(Cc2ccc(OC)c(COC)c2)CC1 | i | 0.73
COc1ccccc1NC(=O)c1cc(C(=O)Nc2ccccc2OC)cc([N+](=O)[O-])c1 | i | 0.23
COc1ccc(C(=O)Nc2nc(C)cc(C)n2)cc1 | i | 0.56
COc1ccc(N(CC(=O)Nc2ccc(C(N)=O)cc2)S(=O)(=O)c2ccc(C)c([N+](=O)[O-])c2)cc1 | i | -3.1
COc1ccc(NC(C)=O)cc1NC(C)c1nc2sc(C)c(C)c2c(=O)[nH]1 (stereo not drawn) | i | -2.6
CCOC(=O)Nc1c(C(=O)OC)[nH]c2cccc(OC)c12 | i | 0.38
COc1cc2c(cc1NC(=O)CN(C)Cc1ccc(OC)c(OC)c1)oc1ccccc12 | i | 2.6
COc1cc(CN2CCNC(=O)C2CC(=O)NCc2csc(C(C)C)n2)cc(OC)c1 (stereo not drawn) | i | -0.18

(listing goes on)
SMILES | KCNQ2 inh | KCNQ2 inh baseline
Cc1ccc2cc(/C=N/NC(=O)c3ccccc3O)c(Cl)nc2c1 | i | -1.5
CCOC(=O)CC1C(=O)NCCN1C(=S)NC(=O)c1ccccc1OC (stereo not drawn) | i | 2.8
COC(=O)[C@@H]1C[C@@H]2CC[C@@H](O)C[C@@H]2N1Cc1ccccc1OS(=O)(=O)c1ccc(C)cc1 | i | -0.67
CCC(=O)Oc1cccc(C(=O)Nc2ccc(-c3nnc(-c4ccco4)o3)cc2)c1 | i | 0.62
CC(C)CNC(=O)CSc1nnc(-c2ccccn2)n1Cc1ccccc1 | i | -0.89
CCCOc1cccc(C2/C(=C(/O)c3ccc(F)cc3)C(=O)C(=O)N2CCN(C)C)c1 (stereo not drawn) | i | -0.02
Cc1ccc(NC(=O)Cn2c(O)c(N=NC(=O)c3ccncc3)c3ccccc32)cc1 | i | -0.26
O=C1c2ccccc2S(=O)(=O)c2cc(N3CCN(c4ccccc4)CC3)ccc21 | i | -0.13
CCOC(=O)c1nn(-c2ccc(C)cc2)c(=O)cc1OCC(=O)N1CCN(c2ccccc2)CC1 | i | -0.9
Cc1ccccc1-n1c(=O)cc(N2CCc3ccccc3C2)[nH]c1=O | i | -0.03
Cc1ccc(NC(=O)C2CCCN2C(=O)NC2CCCCC2)c(C)c1 (stereo not drawn) | i | 0.9
NC(=O)CN1CCN(C(=O)Nc2ccccc2)CC1 | i | -0.79
Cc1ccc(-c2nnc(Oc3ccc(NC(=O)c4ccccc4)cc3)c3ccccc23)cc1 | i | -0.57
Cc1[nH]c2ccccc2c1C(=O)C(=O)N1CCCc2ccccc21 | i | -1.7
Brc1ccc(/C=C/C=N/Nc2nc3ccccc3s2)cc1 | i | -1.4
COC(=O)c1c(NC(=O)CSc2nnc(C)c(=O)[nH]2)sc(C)c1C | i | 1.2
CC(C)CC(=O)Nc1ccccc1-c1nnn(CC(=O)N2CCOCC2)n1 | i | 0.54
O/N=C/c1ccccc1OCc1ccc(Cl)cc1 | i | -0.21
O=C(c1cc(N2CCOCC2)c(F)cc1[N+](=O)[O-])N1CCOCC1 | i | 1.6
CN(C)S(=O)(=O)c1ccc(NC(=O)c2cccnc2)cc1 | i | -2.1
CC(C)Oc1cccc(C(=O)O)c1 | i | 0.02
O=C(Cn1nc(-c2ccccc2F)ccc1=O)Nc1ccc(S(=O)(=O)N2CCCCCC2)cc1 | i | 1.6
Clc1ccccc1Cc1noc(CN2CCN(c3cnccn3)CC2)n1 | i | 1.3
CC1Nc2ncnc(N3CCc4ccccc4C3)c2N(Cc2ccc(Br)cc2)C1=O (stereo not drawn) | i | -0.09
Cn1c(CO)cnc1SCc1ccc(F)cc1 | i | -0.68
COc1cc(C(=O)Nc2cc(C(F)(F)F)ccc2N2CCOCC2)ccc1O | i | 0.27
CNc1oc(-c2ccc(F)cc2)nc1S(=O)(=O)c1ccccc1 | i | 0.45
Cc1ccc(NC(=O)CSc2ccccc2NC(=O)c2ccccc2Cl)cc1Cl | i | -0.93
O=C(C/C=N/OCc1ccc(Cl)cc1Cl)c1ccc(Cl)cc1 | i | -1.2
COc1ccccc1OCCNC(=O)CCNC(=O)c1ccccc1Cl | i | 0.51
CC(c1ccncc1)C(C)c1ccncc1 (stereo not drawn) | i | 1.1
COCCNC(=O)c1ccc(CS(=O)(=O)c2cccc(C(F)(F)F)c2)o1 | i | -2.1
COc1cc2cc(CN(CCc3cccc(C)c3)C(=S)NCCCN3CCOCC3)c(=O)[nH]c2cc1OC | i | 0.49
CCOc1cc(C(=O)OCC(=O)N(C)c2ccccc2)cc(OCC)c1OCC | i | -0.35
COc1ccccc1CCNCc1ccc(OC)c(OCc2ccccc2)c1 | i | 0.74
CN(C(=O)c1cccnc1)c1nnc(-c2cnccn2)s1 | i | 0.32
CC(=O)Nc1ccc(NC(=O)c2cc[n+]([O-])cc2)cc1 | i | -1.4
O=C1c2cccc3cccc(c23)C(=O)N1CCCSc1ncn[nH]1 | i | 0.37
CSCc1cc(N(C)C)nc(SCc2ccc(Cl)cc2Cl)n1 | -9.7* | 0.67*
CCN=C1SC(CC(=O)Nc2ccc(C)cc2)C(=O)N1CC (stereo not drawn) | i | -2.3
Cc1ccsc1-c1ccnc(-n2cccc2)n1 | i | -0.1
N/C(=N\OC(=O)c1cccc2ccccc12)c1ccc(Br)cc1 | -5.6* | 2.5*
O=C(NNc1ccc(F)cc1F)c1c(F)cccc1Cl | i | 0.23
CCCCN1C(=O)C2ON(c3ccccc3C)C(c3ccco3)C2C1=O (stereo not drawn) | i | -0.35
COc1ccc(C2=NOC(C(=O)Nc3ccc4c(c3)OCCO4)C2)cc1OC (stereo not drawn) | i | 0.63
O/N=C(/CCc1ccccc1)C1(O)CCCCC1 | i | 0.57
Cc1cc(Cl)ccc1OC(C)C(=O)NC(C)C1CCCO1 (stereo not drawn) | i | 0.38
CCS(=O)(=O)N1Cc2ccccc2CC1C(=O)Nc1ccc(OC)c(OC)c1 (stereo not drawn) | i | 1.7
Cc1cccn2c(=O)c3cc(C(=O)NC(C)c4ccccc4)c(=N)n(CCCn4ccnc4)c3nc12 (stereo not drawn) | i | 2
COc1cc(NC(=O)C2CC(c3c(F)cccc3Cl)=NO2)c(OC)cc1Cl (stereo not drawn) | i | 0.21
COC(=O)c1cc(=O)n(CCc2ccccc2)c(=Nc2ccc(F)cc2)s1 | i | 0.34
CCOC(=O)C(C)c1nc2ccccc2[nH]c1=O (stereo not drawn) | i | 3
Cc1cc(C(=O)NC2CC(C)(C)Cc3c2cnn3-c2ccccc2C)c(C)o1 (stereo not drawn) | -5.7* | -1.5*
